From PubChem
eIF4H inh = human eIF4H binding inhibitors, primary screen, translation initiation inhibitor project, biochemical, uHTS, fluorescence polarization; Eukaryotic translation initiation factor 4H (Homo sapiens), Q15056; eIF4H fluorescence polarization binding assay; inhibition, % at 35 µM; actives 0.94% (n = 290,000);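 active = 50% or more with normal probe brightness, or confirmed in later tests; about a fifth of its hits are not listed in these tables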;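 note: calls also rest on retests at 20 µM and on dose response follow-up; 0% = protein and probe with vehicle and 100% = probe without protein; strong numbers were not always called active; many hits fall short of the cut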
Env fusion inh = inhibitors of HIV-1 Env-driven cell-cell fusion, primary screen, HeLa-JRFL effector, CEM21 target cells, luciferase. actives 1.1% (n = 360,000). AID 651610, 2012. inhibition, % at 12.3 µM;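 active = mean replicate inhibition score of at least 50 and every replicate individually at or above 50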;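 note: 0% = plate neutral controls and 100% = maraviroc near 300 nM; one replicate is shown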
Yeast UUG start = modulators of yeast start codon fidelity, primary screen, whole organism, S. cerevisiae, single point, plate reader | S. cerevisiae UUG-firefly luciferase reporter, luminescence/redox ratio | activity score, % at 18.7 µM | actives 0.13% (n = 350,000) | AID 602363, 2012;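 active = replicate mean at a twofold rise or more, about +100% in these data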;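 note: firefly luciferase made from a UUG start codon reports start codon fidelity; reporter light over untreated wells divided by growth signal over untreated wells; some hits fall short of that in this replicate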
CSC inhib = cancer stem cell viability inhibitors, primary screen, luminescence; inhibition, % at 7.5 µM; actives 1.1% (n = 300,000); cancer stem cell-like cells viability;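 active = mean at 75% or more and at least half the replicates too; tested in HMLE shEcad cells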;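 note: 0% = median of negative and 100% = median of positive control wells; the first replicate is given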
PABP polyA inh = PABP poly(A) RNA binding inhibitors, primary screen, biochemical, fluorescence polarization, uHTS; Polyadenylate-binding protein 1 (Homo sapiens), P11940; inhibition, % at 35 µM; actives 1% (n = 290,000);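 active = 50% or more with normal probe brightness, or confirmed in later tests; about a fifth of its hits are not listed in these tables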;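 note: calls also rest on retests at 20 µM and on dose response follow-up; controls were probe without protein and protein plus probe with vehicle; some compounds called inactive have numbers as strong as hits; many hits fall short of the cut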
Rce1 inh = yeast Rce1p protease inhibitors, primary screen, biochemical, fluorescence, cell-free homogeneous; yeast membranes, quenched prenylated peptide cleavage fluorescence; AID 2563, 2010; calls only; actives 0.27% (n = 290,000); CAAX prenyl protease 2 (Saccharomyces cerevisiae (strain ATCC 204508 / S288c)), Q03530;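 active = fall in fluorescence gain of 50% or more versus controls, with final raw signal at or below 3038400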;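 note: plate controls were neutral control wells for no effect and wells lacking membranes for full effect; tested at 10 µM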
Target sequence (Q03530 whole entry, looked up): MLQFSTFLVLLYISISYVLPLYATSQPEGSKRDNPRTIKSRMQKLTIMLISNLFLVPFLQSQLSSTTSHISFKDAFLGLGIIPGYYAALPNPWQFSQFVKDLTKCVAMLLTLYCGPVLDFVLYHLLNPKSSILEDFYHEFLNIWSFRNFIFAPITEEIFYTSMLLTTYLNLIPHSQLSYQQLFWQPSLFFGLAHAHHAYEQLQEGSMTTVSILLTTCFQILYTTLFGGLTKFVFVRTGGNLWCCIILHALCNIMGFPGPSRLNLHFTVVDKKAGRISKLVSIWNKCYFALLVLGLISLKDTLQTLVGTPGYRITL
MT1-MMP act inh = blockers of MT1-MMP proenzyme processing, primary screen, HT1080 RFP-PRO-GFP cells, GFP/RFP fluorescence. Matrix metalloproteinase-14 (Homo sapiens), P50281. GFP/RFP ratio fluorescence, overnight; percent of plate control window, DMSO zero. GFP/RFP ratio change, % at 20 µM. actives 0.061% (n = 360,000). AID 651647, 2012;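 active = GFP/RFP ratio change of at least 30% with cell ATP level not reduced by more than half and red fluorescence within 50% of control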; note: strong numbers were not always called active
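Assay system – RFP-PRO-GFP reporter HT1080 cells · Compound dosing – single dose of 20 µM compound, 1% DMSO final · Incubation – overnight compound exposure at 37 °C · Measure – GFP/RFP fluorescence ratio · Benchmarks – DMSO wells and RFP-L50D-GFP cells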
eIF4H inh retest = recorded beside eIF4H inh, whose call it bears; inhibition, %; compound at 20 µM; confirmation average;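 mean of two retest wells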
PABP polyA inh retest = second read-out of PABP polyA inh, no call of its own (marks repeat the call); inhibition, %; compound at 20 µM; confirmation repeats;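 mean of two retest wells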
MT1-MMP act inh RFP = further read-out of MT1-MMP act inh, marked with its call; RFP signal change, %; measured here: RFP expression control read;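 0 = vehicle wells; hits needed this value within 50% of zero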
An asterisk follows results filed as active; i = inactive; x = no result given.

SMILES	eIF4H inh	Env fusion inh	Yeast UUG start	CSC inhib	PABP polyA inh	Rce1 inh	MT1-MMP act inh	MT1-MMP act inh RFP	others
CCOc1ncccc1C(=O)NCc1ccc(OC)cc1	0	x	-7	x	-9	i	3	-1
O=C(CSc1oc(-c2ccco2)nc1S(=O)(=O)c1ccc(Cl)cc1)NCC1CCCO1 (stereo not given)	7	3	-12	-6	5	i	-15	-5
COc1cccc(NC(=O)CSc2nnc3ccc(-c4ccccn4)nn23)c1	x	x	-5	x	x	i	4	1
CCc1nnc(NC(=O)C2CCCCN2S(=O)(=O)c2ccccc2)s1 (stereo not given)	2	0	-12	1	-11	i	4	2
CCC(=O)N1CCN(C(C)=O)C1c1ccccc1 (stereo not given)	-3	x	-14	-9	-1	i	2	3
COc1ccc(C2(c3ccc(OC)cc3)NC(=O)N(CC(=O)Nc3ccccc3)C2=O)cc1	-7	-7	24	-11	0	i	7	-5
COc1ccccc1-c1cnc(C(O)c2cccc(CN3CCCCC3)c2)[nH]1 (stereo not given)	x	-6	-23	x	x	x	4	3
CCOC(=O)C1=C(CC)OC(N)=C(C#N)C1c1cccs1 (stereo not given)	11	x	-4	12	13	i	-5	-3
O=C(C[n+]1ccc(/C=N/O)cc1)NC1CCCCC1	-2	-8	x	8	12	i	0	4
Cc1[nH]c2ccccc2c1-c1nc(N)sc1C	-5	0	-10	-15	0	i	2	2
Cn1ncc([N+](=O)[O-])c1C(=O)Nc1ccc2c(c1)OCCO2	-6	x	-16	-7	0	i	-6	-2
CC(C)Oc1ccc(C(=O)NC2CCSc3ccccc32)cc1 (stereo not given)	-6	-1	-11	6	4	i	-2	-4
O=C1CCCN1CCCNS(=O)(=O)c1ccc(Br)s1	-7	13	12	-8	-8	i	2	6
CN(C)C(=O)c1cccn(Cc2cccc(C(F)(F)F)c2)c1=O	-8	2	-15	1	1	i	-1	5
CCOC(=O)c1ccccc1NC(=O)c1n[nH]c(=O)c2ccccc12	4	x	x	3	5	i	2	-1
COc1ccccc1NC(=S)NCc1ccco1	2	x	-12	-12	10	i	-2	-2
C/C=C/c1cc(CN2CCN(c3ccc(OC)cc3)CC2)c(O)c(OC)c1	-3	0	17	3	10	x	-1	-5
C=C(C)C(=O)Nc1cccc(C2=NOC3(C2)C[C@@H](C(N)=O)N(C(=O)/C=C/CC)C3)c1 (stereo not given in full)	84*	10	-13	2	56*	i	3	6
Cc1ccc(N(C(=O)Cn2nnc(-c3ccc(C)o3)n2)C(C(=O)NC2CCCC2)c2ccco2)cc1 (stereo not given)	11	-8	-16	-23	-2	i	-3	-5
COc1ccc(C)cc1N(C(=O)c1snc(C(N)=O)c1N)C(C(=O)NC1CCCC1)c1ccc(F)cc1 (stereo not given)	-12	14	-6	16	11	i	-7	-5
O=S(=O)(NCc1ccccc1)c1ccccc1Br	-5	-11	-18	3	-6	i	0	2
[N-]=[N+]=CC(=O)CNC(=O)[C@@H](Cc1ccccc1)N1C(=O)c2ccccc2C1=O	-7	x	-9	-11	-6	i	-2	2
CC1=NC(C)Cc2ccccc21 (stereo not given)	-1	x	-19	-13	5	i	-6	-1
CC(=O)c1ccc(NS(=O)(=O)c2ccc(CC(C)C)cc2)cc1	4	-1	-1	-12	7	i	1	-13
CC(OC(=O)CCc1ccccc1)C(=O)Nc1ncc(Cl)cc1Cl (stereo not given)	-6	x	-8	28	1	i	3	3
Cc1ccc(N2C(=O)N(CC(=O)Nc3cccc(C)c3C)C(=O)C2C)cc1 (stereo not given)	x	-10	x	4	x	i	3	-3
N#CC(c1ccc(Cl)cc1)c1nc2ccccc2nc1C(F)(F)F (stereo not given)	10	x	-4	12	11	i	-2	-1
O=C(NO)C1CC2C=CC1C2 (stereo not given)	-7	9	-2	12	8	i	0	-1
Cc1cc(C)c(S(=O)(=O)N2CCN(S(=O)(=O)N3CCCCCC3)CC2)c(C)c1	-10	14	-17	3	-8	i	-4	-7
Clc1ccc(-c2ccccc2)nn1	9	-11	-6	0	-5	i	0	-2

Arranged by length of the SMILES (largest number first): some entries from above
SMILES	eIF4H inh	Env fusion inh	Yeast UUG start	CSC inhib	PABP polyA inh	Rce1 inh	MT1-MMP act inh	MT1-MMP act inh RFP	others
C=C(C)C(=O)Nc1cccc(C2=NOC3(C2)C[C@@H](C(N)=O)N(C(=O)/C=C/CC)C3)c1 (stereo not given in full)	84*	10	-13	2	56*	i	3	6
COc1ccc(C)cc1N(C(=O)c1snc(C(N)=O)c1N)C(C(=O)NC1CCCC1)c1ccc(F)cc1 (stereo not given)	-12	14	-6	16	11	i	-7	-5
Cc1ccc(N(C(=O)Cn2nnc(-c3ccc(C)o3)n2)C(C(=O)NC2CCCC2)c2ccco2)cc1 (stereo not given)	11	-8	-16	-23	-2	i	-3	-5
[N-]=[N+]=CC(=O)CNC(=O)[C@@H](Cc1ccccc1)N1C(=O)c2ccccc2C1=O	-7	x	-9	-11	-6	i	-2	2
Cc1cc(C)c(S(=O)(=O)N2CCN(S(=O)(=O)N3CCCCCC3)CC2)c(C)c1	-10	14	-17	3	-8	i	-4	-7
Cc1ccc(N2C(=O)N(CC(=O)Nc3cccc(C)c3C)C(=O)C2C)cc1 (stereo not given)	x	-10	x	4	x	i	3	-3
C/C=C/c1cc(CN2CCN(c3ccc(OC)cc3)CC2)c(O)c(OC)c1	-3	0	17	3	10	x	-1	-5
CCOC(=O)c1ccccc1NC(=O)c1n[nH]c(=O)c2ccccc12	4	x	x	3	5	i	2	-1
CC(=O)c1ccc(NS(=O)(=O)c2ccc(CC(C)C)cc2)cc1	4	-1	-1	-12	7	i	1	-13
CC(OC(=O)CCc1ccccc1)C(=O)Nc1ncc(Cl)cc1Cl (stereo not given)	-6	x	-8	28	1	i	3	3
O=S(=O)(NCc1ccccc1)c1ccccc1Br	-5	-11	-18	3	-6	i	0	2
COc1ccccc1NC(=S)NCc1ccco1	2	x	-12	-12	10	i	-2	-2
Clc1ccc(-c2ccccc2)nn1	9	-11	-6	0	-5	i	0	-2
CC1=NC(C)Cc2ccccc21 (stereo not given)	-1	x	-19	-13	5	i	-6	-1

More structures:
SMILES	eIF4H inh	Env fusion inh	Yeast UUG start	CSC inhib	PABP polyA inh	Rce1 inh	MT1-MMP act inh	MT1-MMP act inh RFP	others
Cc1ccccc1NC(=O)C1CC(=O)N(Cc2ccccc2)C1 (stereo not given)	-8	4	8	-10	-2	i	2	2
CCOC(=O)c1cc2c(=O)n3ccccc3nc2n(Cc2ccco2)c1=NC(=O)c1ccc(OC)cc1	17	7	x	0	-6	i	-10	1
CC(=O)NC(C)c1ccc(C(=O)CSc2nnc(C3CC3)n2C2CC2)cc1 (stereo not given)	x	7	x	-7	x	x	4	7
Cc1cccc(C(=O)NC(C)c2ccc(-n3ccnc3)cc2)c1C (stereo not given)	-5	4	-16	-4	0	i	-4	-6
COc1ccc(C(=O)C2CCCN(C(=O)Cn3nc(C)nc3C)C2)cc1F (stereo not given)	x	4	-15	x	x	x	1	1
O=C(NCCC1=CCCCC1)C1CCC(=O)N(Cc2cccc(C(F)(F)F)c2)C1 (stereo not given)	-19	31	25	-26	3	i	5	2
COC(=O)[C@H]1C[C@@H]1[C@H](NC(=O)c1cccnc1)c1ccccc1	x	-4	16	1	x	i	-1	0
Nc1nnc(SCC(=O)Nc2cc(F)ccc2F)s1	x	0	20	11	x	i	-12	-9
COC(=O)c1c(C(=O)OC)c(-c2ccc(Br)cc2)n2c1CS(=O)C2 (stereo not given)	-27	13	-1	-3	-6	i	4	-2
Cc1n[nH]c(=O)c2c(NC(=O)CSc3nc4ccccc4c(=O)n3-c3ccc(OC(F)F)cc3)oc(C)c12	x	-1	-2	-1	x	x	1	-4
COc1ccc(OC)c(-c2csc(NC(=O)C3=COCCO3)n2)c1	x	x	-17	-9	x	i	-1	1
Cc1cccc(C(=O)NCC(=O)OCC(=O)c2ccc(Cl)s2)c1	-9	x	0	x	-5	i	-3	1
COc1ccc(C(=O)CN2CCN(c3ncccn3)CC2)cc1	0	2	-10	-6	3	i	-2	1
C=CC[C@@H](CC(=O)N(CCO)Cc1ccccc1)C(=O)N[C@H](COC(=O)[C@@H](CC=C)Cc1ccc(F)cc1)Cc1ccccc1	x	-10	-14	-5	x	x	-27	-23
Cc1ccc(S(=O)(=O)N2CCN(C(=O)CC(C)n3nc(C)c(Cl)c3C)CC2)cc1 (stereo not given)	3	-22	22	-10	3	i	1	-6
CCn1c(SCC(=O)NC2CCCC2)nnc1C(C)NC(=O)c1ccccc1Br (stereo not given)	4	-16	21	x	7	i	3	1
Cc1cc(C)c(S(=O)(=O)N2CCOC23CCN(S(C)(=O)=O)CC3)c(C)c1	x	10	-4	x	x	x	2	-2
COC(=O)CCC(=O)OC1(C)C(=O)C=C2C=C(C3CC3)N(CCCCO)C=C2C1=O (stereo not given)	38	-3	0	-3	22	i	2	5
COc1ccccc1C1/C(=C(/O)c2ccccc2)C(=O)C(=O)N1CC(C)C (stereo not given)	-3	x	-10	-7	6	i	-2	0
COc1ccc(CNC(=O)CCC(=O)c2ccc(C)cc2)cc1OC	-8	1	16	-5	-10	i	-2	4
Cc1ccc(S(=O)(=O)NCC(=O)OCC(=O)NC2CCCCC2)cc1	x	x	-19	-15	x	x	5	3
O=C(c1ccc([N+](=O)[O-])o1)N1CCN(c2nc3ccc(F)cc3s2)CC1	x	-17	-12	12	x	i	0	-13
CCCc1nnc(NC(=O)CC(C)c2ccccc2)s1 (stereo not given)	-2	14	-8	-19	-6	i	-2	1
Cc1ccc(N=N/C(=C\O)C(=O)c2ccc(Cl)cc2)cc1	3	-8	-7	17	-3	i	4	-3
CC(C)c1cc(C(=O)OCC(=O)NC(=O)NCc2ccco2)c(O)c(C(C)C)c1	19	18	x	-9	77	i	-3	2	eIF4H inh retest=0;PABP polyA inh retest=6
Cc1ccc(NC(=O)C(=O)NCC2CCCN2S(=O)(=O)c2cccs2)cc1C (stereo not given)	x	25	-16	-10	x	i	-3	-10
CC1CCc2cc(F)ccc2N1C(=O)c1ccncc1 (stereo not given)	6	-32	-6	-8	-1	i	-7	-1
COc1cc(NC(=O)COC(=O)CSc2ccccc2F)c(C)cc1[N+](=O)[O-]	2	-6	x	-16	6	i	0	1
COc1cccc(/C=C2\SC(=S)NC2=O)c1OS(=O)(=O)c1ccc(NC(C)=O)cc1	-5	x	x	x	-1	i	-2	4
CCC(=O)N1C(C(=O)N2CCCC2)CSC1c1ccc(OC)cc1 (stereo not given)	-12	-7	-22	0	-10	i	-3	-2
CCOc1ccc(NC(=O)CN(C)C(=O)c2cn(-c3ccc(F)cc3)nc2-c2cccc(OC)c2)cc1OCC	x	38	17	-13	x	i	1	-2
CN(C)CCCN1C(=O)C(O)=C(C(=O)c2cccs2)C1c1cccc([N+](=O)[O-])c1 (stereo not given)	2	x	x	-17	1	i	x	x
Cc1ccc(C2=NN=C(NC(=O)CSc3nncn3C)SC2)cc1	0	-41	-39	14	-4	i	-6	-1

This is a subset; count on the stated rates, not on these rows.
